# Screening results (PubChem BioAssay)
# HSV augment: HSV replication enhancement; HSV replication augmentation in cells, fold increase; maximum fold increase; 0.005% of 220,000 active;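 active = peak rise of 1.5-fold or more in the series; inconclusive = self-fluorescent or not available for retest; tested in PC3 cells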;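 also: first round at 10 µM; read as green reporter fluorescence; hits show the peak of a series up to 25 µM; 1 = signal of infected wells without compound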
# INS promoter inh: TRM-6 insulin promoter activity inhibition; AID 1273; TRM-6 cells (human fetal islet line), insulin promoter-eGFP reporter, imaging; reporter expression induced with tamoxifen; inhibition, % at 2 µM; 0.9% of 130,000 active;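 active = inhibition above the mean plus 3 SD, with well images judged a real hit on visual review, cut at about 60% in these data, passing the limit was not always enough; inconclusive = inhibition over the cutoff but images rejected on review; inactive = inhibition not above the cutoff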
# PKD1 kinase inh: PKD1 (human) kinase inhibition. PKD1 kinase fluorescence polarization assay. inhibition, %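 (about 10 µM by stock and volumes)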. 0.056% of 200,000 active. AID 797;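 active = inhibition of 50% or more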;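 also: controls were vehicle for no effect and a reference inhibitor for full effect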
# Target sequence (Q15139 whole entry, looked up): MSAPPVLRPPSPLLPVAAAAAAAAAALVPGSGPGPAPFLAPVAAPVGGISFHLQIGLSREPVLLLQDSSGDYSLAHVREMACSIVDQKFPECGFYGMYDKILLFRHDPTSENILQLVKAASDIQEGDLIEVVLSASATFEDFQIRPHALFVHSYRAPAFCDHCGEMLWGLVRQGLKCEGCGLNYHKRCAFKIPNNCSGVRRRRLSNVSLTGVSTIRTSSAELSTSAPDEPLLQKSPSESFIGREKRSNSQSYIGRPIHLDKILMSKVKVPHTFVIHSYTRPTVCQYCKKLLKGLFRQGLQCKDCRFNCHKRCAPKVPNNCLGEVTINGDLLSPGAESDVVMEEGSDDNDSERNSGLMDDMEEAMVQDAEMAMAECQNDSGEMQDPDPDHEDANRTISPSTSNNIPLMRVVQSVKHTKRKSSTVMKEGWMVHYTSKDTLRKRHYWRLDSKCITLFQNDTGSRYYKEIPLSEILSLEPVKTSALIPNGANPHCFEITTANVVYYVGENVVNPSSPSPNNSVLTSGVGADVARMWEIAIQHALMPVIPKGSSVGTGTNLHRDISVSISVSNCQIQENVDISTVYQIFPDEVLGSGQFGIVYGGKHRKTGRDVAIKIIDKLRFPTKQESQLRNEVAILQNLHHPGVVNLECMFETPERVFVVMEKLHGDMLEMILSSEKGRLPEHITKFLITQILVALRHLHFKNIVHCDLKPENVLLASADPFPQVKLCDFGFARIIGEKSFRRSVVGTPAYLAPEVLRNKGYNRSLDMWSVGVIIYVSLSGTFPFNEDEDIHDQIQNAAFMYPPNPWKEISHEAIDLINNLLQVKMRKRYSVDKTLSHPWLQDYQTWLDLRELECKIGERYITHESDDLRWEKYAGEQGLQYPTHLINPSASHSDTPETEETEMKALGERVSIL
# GALR2 agonist: GALR2 (human) receptor agonism; GALR2-expressing cells, agonist activation read-out; 0.48% of 140,000 active; O43603; activation, %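 (tested at 5 µM)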;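 active = above mean plus 3 SD of all compounds, about 5% in these data, not always enough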;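 also: 0% = vehicle buffer wells and 100% = reference agonist at full effect; tested in CHO reporter cells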
# RGS16-Gao: modulates binding between human RGS16 and Galphao; O15492+P09471; bead-based flow cytometry RGS16-Galphao binding, fluorescence; actives lie on both sides; binding response (% of control), % at 10 µM; 0.38% of 220,000 active; AID 1441;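 active = below 25% or above 175%, edge rows of some plates excepted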;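 also: Galphao activated by GDP with aluminum fluoride before binding; 100% = wells without compound and 0% = beads without RGS; some results beyond the cut were filed as inactive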
# INS promoter inh cell count: second read-out of INS promoter inh, no call of its own (marks repeat the call); normalized cell count, %; measured here: cell count, toxicity; reference of the scale not given here;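 cells exposed to compound for 48 h; stained nuclei by imaging scaled within each plate; lower means fewer cells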
# HSV augment primary fold: also measured in HSV augment; calls as there; fold increase; compound at 10 µM; measured here: primary screen fold increase 10 uM; tested in PC3 cells;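 GFP signal in the first replicate; 1 = infected wells without compound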
# * hit, by the source's call; i = inactive; ? = inconclusive; nt = not tested or not shown. Rows are unselected, and some 1.3% of all compounds hit somewhere here.
# Keys – A = HSV augment; B = HSV augment primary fold; C = INS promoter inh; D = INS promoter inh cell count; E = PKD1 kinase inh; F = GALR2 agonist; G = RGS16-Gao
smiles: COc1cc(C[C@H](C)[C@H](C)Cc2ccc3c(c2)OCO3)ccc1O
  A = i | B = 0.88 | C = nt | D = nt | E = nt | F = nt | G = 89
smiles: CCOc1ccc(NC(=O)CSc2nc3cccnc3n2CCOC)cc1
  A = i | B = 0.89 | C = 0 | D = 114 | E = -24 | F = -2.4 | G = 98
smiles: COC(=O)c1sc2nc(C)nc(SCC(=O)N3CCC(C(=O)O)CC3)c2c1C
  A = i | B = 1.1 | C = 0 | D = 70 | E = -8 | F = nt | G = 96
smiles: Cc1ccc(S(=O)(=O)N2CCC(C(=O)NCc3ccccc3Cl)CC2)cc1
  A = i | B = 0.96 | C = -91 | D = 82 | E = 8 | F = -0.4 | G = 102
smiles: Cn1c(SCC(=O)NCc2ccc3c(c2)OCO3)nnc1-c1cccs1
  A = i | B = 0.89 | C = 0 | D = 81 | E = 6 | F = -1.5 | G = 98
smiles: CCOC(=O)c1[nH]c2cc3c(cc2c1NC(=O)CN1CCCCC1C)OCO3 (stereo unspecified)
  A = nt | B = nt | C = nt | D = nt | E = 1 | F = -0.5 | G = 101
smiles: CCCOc1nc2ccccc2cc1/C=C/C(=O)O
  A = i | B = 0.97 | C = nt | D = nt | E = -4 | F = nt | G = 99
smiles: Cc1cc(OCC(=O)Nc2ccccc2F)nc(C(C)C)n1
  A = i | B = 1 | C = 22 | D = 185 | E = 3 | F = -1.8 | G = 102
smiles: CC(=Nc1ccc(O)cc1)c1sc2ccccc2c1O
  A = ? | B = nt | C = nt | D = nt | E = -4 | F = -3.3 | G = 96
smiles: c1ccc2c(c1)OCC(CNc1ncnc3nc[nH]c13)O2 (stereo unspecified)
  A = i | B = 0.68 | C = nt | D = nt | E = -7 | F = -1.6 | G = 110
smiles: CCOC(=O)C(=NCCOC)NNc1cc(Cl)ccc1Cl
  A = i | B = 0.9 | C = -10 | D = 79 | E = -13 | F = -0.8 | G = 102
smiles: CC(=O)c1c(C)[nH]c(C(=O)OCC(=O)Nc2cc(S(=O)(=O)N3CCCC3)ccc2Cl)c1C
  A = i | B = 0.94 | C = nt | D = nt | E = 0 | F = -0.8 | G = 101
smiles: COC(=O)[C@H](CCSC)NC(=O)Nc1ccc(C(C)C)cc1
  A = i | B = 0.83 | C = nt | D = nt | E = 3 | F = 0.7 | G = 95
smiles: O=C(Nc1ccc(Cl)c(Cl)c1)c1ccc(Cn2c(=O)[nH]c3ccsc3c2=O)cc1
  A = i | B = 0.93 | C = 22 | D = 105 | E = -5 | F = 0.1 | G = 100
smiles: Nc1ccccc1SC1CC(=O)N(c2ccccc2Cl)C1=O (stereo unspecified)
  A = i | B = 1.2 | C = nt | D = nt | E = nt | F = nt | G = 98
smiles: CC(C)CCNC(=O)c1nnc(Cc2ccc(Cl)cc2)o1
  A = i | B = 0.84 | C = nt | D = nt | E = 3 | F = -0.7 | G = 99
smiles: COc1ccccc1N1CCN(C(=O)c2nn(-c3ccccc3OC)c(=O)c3ccccc23)CC1
  A = i | B = 0.95 | C = nt | D = nt | E = -11 | F = -1.0 | G = 101
smiles: CCn1c(SCc2nc3ccccc3s2)nnc1-c1cccs1
  A = i | B = 0.95 | C = -9 | D = 60 | E = 5 | F = 0.1 | G = 104
smiles: CN1C(=O)CC(N2CCC(c3nc4ccccc4s3)CC2)C1=O (stereo unspecified)
  A = i | B = 0.99 | C = -25 | D = 95 | E = -8 | F = -3.0 | G = 105
smiles: Cc1c(N=C2NN=C(c3c[nH]c4ccccc34)CS2)c(=O)n(-c2ccccc2)n1C
  A = i | B = 1.2 | C = nt | D = nt | E = nt | F = nt | G = 112

# Some of the entries above, reformatted.
Molecule	HSV augment	HSV augment primary fold	INS promoter inh	INS promoter inh cell count	PKD1 kinase inh	GALR2 agonist	RGS16-Gao
CC(=O)c1c(C)[nH]c(C(=O)OCC(=O)Nc2cc(S(=O)(=O)N3CCCC3)ccc2Cl)c1C	i	0.94	nt	nt	0	-0.8	101
CCn1c(SCc2nc3ccccc3s2)nnc1-c1cccs1	i	0.95	-9	60	5	0.1	104
COc1ccccc1N1CCN(C(=O)c2nn(-c3ccccc3OC)c(=O)c3ccccc23)CC1	i	0.95	nt	nt	-11	-1.0	101
CCOC(=O)C(=NCCOC)NNc1cc(Cl)ccc1Cl	i	0.9	-10	79	-13	-0.8	102
Cc1c(N=C2NN=C(c3c[nH]c4ccccc34)CS2)c(=O)n(-c2ccccc2)n1C	i	1.2	nt	nt	nt	nt	112
CN1C(=O)CC(N2CCC(c3nc4ccccc4s3)CC2)C1=O (stereo unspecified)	i	0.99	-25	95	-8	-3.0	105

# Single records, from the list above.
# Profile of `COc1ccccc1N1CCN(C(=O)c2nn(-c3ccccc3OC)c(=O)c3ccccc23)CC1` → HSV augment = i; HSV augment primary fold = 0.95; INS promoter inh = nt; INS promoter inh cell count = nt; PKD1 kinase inh = -11; GALR2 agonist = -1.0; RGS16-Gao = 101
# Profile of `CN1C(=O)CC(N2CCC(c3nc4ccccc4s3)CC2)C1=O` (stereo unspecified) → HSV augment = i; HSV augment primary fold = 0.99; INS promoter inh = -25; INS promoter inh cell count = 95; PKD1 kinase inh = -8; GALR2 agonist = -3.0; RGS16-Gao = 105

# (next part)
# Keys – A = HSV augment; B = HSV augment primary fold; C = INS promoter inh; D = INS promoter inh cell count; E = PKD1 kinase inh; F = GALR2 agonist; G = RGS16-Gao
smiles: Cn1c(=O)oc2cc(S(=O)(=O)N3CCOCC3)ccc21
  A = i | B = 1.1 | C = 33 | D = 103 | E = -3 | F = -0.5 | G = 102
smiles: C=CCn1c(Sc2nnc(C)s2)nc2c1c(=O)[nH]c(=O)n2C
  A = i | B = 0.64 | C = nt | D = nt | E = 3 | F = -0.8 | G = 100
smiles: O=C(O)C1CC(c2ccccc2F)=NO1 (stereo unspecified)
  A = i | B = 1 | C = -84 | D = 89 | E = -3 | F = -3.3 | G = 104
smiles: COc1ccccc1-c1nnc2n1N=C(C(C)(C)C)CS2
  A = i | B = 1.2 | C = 36 | D = 78 | E = 3 | F = 0.4 | G = 72
